# Compound activity deposited in PubChem by Broad Institute.
# Ecoli rRNA inh: inhibitors of bacterial rRNA selective over humanized ribosomes; E. coli WT GFP vs humanized-ribosome RFP mutants, fluorescence, 24 h; stronger effect = lower value; DMSO median 0, no signal -100; GFP signal change (wild-type ribosome), % (concentration not given with the values); 350,000 tested, 1.6% active; AID 720706;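 active means significant combined selectivity score with lowered wild-type GFP, culture density cut under 30%, mutant RFP and density less affected; inactive means any of these conditions unmet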; further: one replicate is shown; some compounds called inactive have numbers as strong as hits
# FGF22 binding: shifts melting point of recombinant human FGF22. Q9HCT0. recombinant FGF22 thermal shift, SYPRO orange fluorescence; percent of sucrose octasulfate shift, DMSO zero. calls only at 9.99 µM. 340,000 tested, 1.5% active. AID 651658;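 active means melting point raised past a set limit in the mean and every replicate; three in four hits are not shown here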
# Target sequence (Q9HCT0 whole entry, looked up): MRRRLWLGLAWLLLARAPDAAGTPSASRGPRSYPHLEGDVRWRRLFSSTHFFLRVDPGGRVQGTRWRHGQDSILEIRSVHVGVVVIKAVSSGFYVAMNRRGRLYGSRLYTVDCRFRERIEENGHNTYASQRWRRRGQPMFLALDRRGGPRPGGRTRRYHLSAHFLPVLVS
# Ecoli rRNA inh OD600: recorded beside Ecoli rRNA inh, whose call it bears; OD600 change, %; measured here: OD600 growth;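 optical density of the mix in the first replicate; 0 = DMSO median and -100 = no signal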
# Ecoli rRNA inh RFP: recorded beside Ecoli rRNA inh, whose call it bears; RFP signal change, %; measured here: RFP humanized mutant strains;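 first replicate; 0 = DMSO median and -100 = no signal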
# * hit, by the source's call; i = inactive; / = no result given.
Ecoli rRNA inh,Ecoli rRNA inh OD600,Ecoli rRNA inh RFP,FGF22 binding,compound
0.3,-6.5,-0.9,i,C[C@@H]1CN([C@H](C)CO)C(=O)c2cccc(NC(=O)NC3CCCCC3)c2O[C@H]1CN(C)S(=O)(=O)c1ccc(F)cc1
1.6,4.7,3.3,i,COc1ccc(CN(C)C[C@@H]2Oc3c(NC(=O)Nc4ccccc4)cccc3C(=O)N([C@H](C)CO)C[C@@H]2C)cc1
-0.1,3.8,-1.0,i,C[C@H]1CN([C@@H](C)CO)C(=O)c2cc(C#CCN(C)C)cnc2O[C@H]1CN(C)Cc1cccc(F)c1
-2.0,-6.2,1.3,i,Cc1ccc(S(=O)(=O)N(C)C[C@H]2Oc3ccc(NC(=O)NC4CCCCC4)cc3CC(=O)N([C@@H](C)CO)C[C@@H]2C)cc1
1.4,2.7,0.4,i,CN(C)c1ccc2c(c1)[C@H]1C[C@@H](CC(=O)NCc3ccccc3)O[C@@H](CO)[C@H]1O2
-0.2,0.1,-0.8,i,C[C@@H]1CN([C@@H](C)CO)C(=O)c2c(c3ccccc3n2C)-c2ccccc2CO[C@@H]1CN(C)C(=O)[C@H](Cc1ccccc1)N(C)C
-2.4,-1.3,-1.4,i,CN1CCN(C(=O)C[C@H]2CC[C@H]3[C@@H](COC[C@@H](O)CN3Cc3cccc(-c4ccncc4)c3)O2)CC1
2.2,-3.2,-2.4,i,O=C(NCc1ccccc1)[C@H]1[C@H](CO)[C@H]2Cn3c(cccc3=O)[C@@H]1N2
-0.7,-9.1,-0.9,i,O=C(C[C@H]1C[C@H]2c3cc(NS(=O)(=O)c4ccccc4)ccc3O[C@H]2[C@@H](CO)O1)NCC(F)(F)F
1.6,1.9,-0.7,i,C[C@@H]1CCCCO[C@H](CN(C)C(=O)NC2CCCCC2)[C@H](C)CN([C@H](C)CO)C(=O)c2cc(NC(=O)Nc3cccc4ccccc34)ccc2O1
2.2,3.2,-1.5,i,CC(C)C#Cc1ccc([C@H]2[C@@H](C#N)N(C(=O)C3CCC3)[C@H]2CO)cc1
-3.3,-11.4,-1.1,i,COc1ccccc1CNC(=O)C[C@H]1C=C[C@@H](NC(=O)CC2CC2)[C@@H](CO)O1
0.6,12.0,-1.6,i,NCC[C@H]1CC[C@H](NC(=O)NC2CCCCC2)[C@H](CO)O1
2.2,6.3,-0.3,i,CO[C@@H]1CN(C)C(=O)c2ccc(NS(C)(=O)=O)cc2OC[C@@H](C)N(CC2CC2)C[C@@H]1C
-5.8,-8.1,3.5,i,C[C@@H]1CCCCO[C@H](CN(C)C(=O)C2CCCCC2)[C@@H](C)CN([C@@H](C)CO)C(=O)c2cc(NC(=O)Cc3ccccc3)ccc2O1
-9.4,-10.7,2.4,i,C[C@H](NC(=O)[C@H]1[C@H](CO)[C@H]2Cn3c(ccc(/C=C/c4ccccc4)c3=O)[C@@H]1N2)c1ccccc1
-0.2,-2.1,-0.4,i,C[C@H]1CN([C@@H](C)CO)S(=O)(=O)c2ccc(C3=CCCCC3)cc2O[C@H]1CN(C)Cc1ccccc1F
-0.6,0.6,-2.1,i,COC(=O)C[C@H]1CC[C@@H]2[C@H](COc3ccc(NC(=O)c4cccc(F)c4)cc3C(=O)N2C)O1
1.2,3.1,-3.7,i,C[C@H](CO)N1C[C@H](C)[C@H](CN(C)C(=O)N[C@H](C)c2ccccc2)OCc2ccccc2-c2ccccc2C1=O
-0.4,3.0,-0.8,i,COCC(=O)N(C)C[C@@H]1Oc2ncc(-c3ccc(C)cc3)cc2C(=O)N([C@@H](C)CO)C[C@@H]1C
5.4,-4.2,-0.3,i,O=C(CN1CCOCC1)N1CCCCN2[C@H](CO)[C@H](c3ccc(-c4ccccc4F)cc3)[C@H]2C1
2.0,1.5,-1.9,i,CCCN1C[C@@H](C)[C@@H](OC)CN(C)C(=O)c2ccc(NC(=O)Nc3c(C)noc3C)cc2OC[C@H]1C
1.1,4.8,2.1,i,COCC(=O)N1C[C@@H](C)[C@@H](OC)CN(C)C(=O)c2ccc(NC(=O)c3ccc(F)cc3)cc2OC[C@H]1C
14.7,7.3,2.4,/,CC(C)(C)c1ccc(C#C[C@@H]2C=C[C@H]3OC(=O)CC/C=C/CCC(=O)OC[C@H]3O2)cc1
3.1,14.2,-2.8,i,CCCNC(=O)C[C@@H]1C[C@@H]2c3cc(NC(=O)Cc4ccncc4)ccc3O[C@@H]2[C@H](CO)O1
-3.1,-3.2,-2.0,i,C[C@@H]1CN([C@@H](C)CO)C(=O)c2ccccc2-c2ccccc2CO[C@H]1CN(C)C(=O)[C@H](C)c1ccccc1
4.8,12.9,0.9,i,C[C@@H]1CN([C@@H](C)CO)C(=O)Cc2cc(NS(=O)(=O)c3ccc(F)cc3)ccc2O[C@@H]1CN(C)Cc1ccc(Oc2ccccc2)cc1
0.0,-5.0,-5.0,i,Cc1ccccc1S(=O)(=O)N1C[C@@H](O)COC[C@H]2O[C@@H](CC(=O)N3CCOCC3)CC[C@@H]21
1.9,4.8,-0.4,i,COc1ccc(S(=O)(=O)N(C)C[C@@H]2Oc3ccc(NC(=O)C4CCCCC4)cc3CC(=O)N([C@H](C)CO)C[C@@H]2C)cc1
2.2,-1.1,-3.1,i,CN1C(=O)c2cc(NC(=O)c3cnccn3)ccc2OC[C@H]2O[C@@H](CC(=O)N[C@@H]3CCN(Cc4ccccc4)C3)CC[C@H]21
0.2,17.1,-2.0,i,COc1ccc2c3c([nH]c2c1)[C@H](CO)N(C(C)=O)CC31CCN(C(=O)Nc2c(C)noc2C)CC1
0.5,5.3,0.4,i,O=C(Nc1ccccc1F)N[C@H]1CC[C@H](CCNC(=O)C2CCC2)O[C@H]1CO
1.9,3.0,-1.7,i,C[C@@H]1CN([C@H](C)CO)C(=O)Cc2cc(NC(=O)Nc3ccccc3)ccc2O[C@H]1CN(C)CC1CC1
0.7,2.6,0.4,i,CN(C)C(=O)c1ccc(-c2ccc([C@@H]3[C@@H](CO)N(C(=O)C4CCCC4)[C@H]3C#N)cc2)cc1
-1.5,-7.5,-2.0,i,CO[C@H]1CN(C)C(=O)c2cc(C#N)ccc2OC[C@H]2O[C@@H](CC[C@@H]2OC)CCN(C)C(=O)[C@H]1C
-2.9,-14.8,7.3,i,COc1cccc(S(=O)(=O)N2C[C@H](O)COC[C@@H]3O[C@H](CC(=O)N4CCN(c5ccccc5)CC4)CC[C@H]32)c1
0.8,2.9,-3.5,i,CN1C(=O)c2cc(NC(=O)C3CCOCC3)ccc2OC[C@@H]2O[C@H](CC(=O)NC3CCCC3)CC[C@@H]21
0.7,-6.6,-1.7,i,CCC(=O)N1[C@@H](CO)[C@@H](c2ccc(-c3cccnc3)cc2)[C@@H]1CN(CC)C(C)=O
5.0,2.0,3.6,i,COc1ccc2c3c(n(C)c2c1)[C@H](CO)N(CC1CC1)CC31CN(Cc2nccs2)C1
6.4,7.8,2.3,i,CC(C)[C@@H]1NC(=O)[C@@H]2CSCCS(=O)(=O)N2C1=O

# 2 compounds from above with just Ecoli rRNA inh OD600 and FGF22 binding:
Compound,Ecoli rRNA inh OD600,FGF22 binding
CO[C@H]1CN(C)C(=O)c2cc(C#N)ccc2OC[C@H]2O[C@@H](CC[C@@H]2OC)CCN(C)C(=O)[C@H]1C,-7.5,i
COc1cccc(S(=O)(=O)N2C[C@H](O)COC[C@@H]3O[C@H](CC(=O)N4CCN(c5ccccc5)CC4)CC[C@H]32)c1,-14.8,i

# Given with tabs: part of the list above.
SMILES	Ecoli rRNA inh	Ecoli rRNA inh OD600	Ecoli rRNA inh RFP	FGF22 binding
CCC(=O)N1[C@@H](CO)[C@@H](c2ccc(-c3cccnc3)cc2)[C@@H]1CN(CC)C(C)=O	0.7	-6.6	-1.7	i
COc1ccc2c3c(n(C)c2c1)[C@H](CO)N(CC1CC1)CC31CN(Cc2nccs2)C1	5.0	2.0	3.6	i
CC(C)[C@@H]1NC(=O)[C@@H]2CSCCS(=O)(=O)N2C1=O	6.4	7.8	2.3	i

# The list goes on.
Ecoli rRNA inh,Ecoli rRNA inh OD600,Ecoli rRNA inh RFP,FGF22 binding,compound
-0.8,8.0,-3.9,i,C[C@@H]1CCCCO[C@H](CN(C)C(=O)CCCN(C)C)[C@@H](C)CN([C@@H](C)CO)C(=O)c2cc(N(C)C)ccc2O1
6.6,11.3,0.0,i,COc1ccc2c3c([nH]c2c1)[C@H](CO)N(C(=O)C1CCCC1)CC31CCN(C)CC1
1.5,-1.7,2.7,i,Cc1noc(C)c1S(=O)(=O)N(C)C[C@H]1OCCCC[C@H](C)Oc2ccc(NC(=O)CCC(F)(F)F)cc2C(=O)N([C@H](C)CO)C[C@@H]1C
-0.3,-14.0,2.3,i,CCCNC(=O)N(C)C[C@H]1Oc2cc(-c3ccc(C)cc3)ccc2S(=O)(=O)N([C@H](C)CO)C[C@H]1C
4.0,5.9,-2.4,i,CC(C)NC(=O)N(C)C[C@@H]1Oc2ccc(NS(C)(=O)=O)cc2C(=O)N([C@H](C)CO)C[C@@H]1C
2.0,0.8,-0.5,i,CO[C@@H]1CN(C)C(=O)c2ccc(NS(=O)(=O)c3cn(C)cn3)cc2OC[C@H](C)N(CCC(F)(F)F)C[C@H]1C
2.1,18.9,-0.5,i,C[C@H](CO)N1C[C@H](C)[C@H](CN(C)S(=O)(=O)c2cn(C)cn2)Oc2c(NS(=O)(=O)c3ccccc3)cccc2C1=O
0.1,6.2,1.9,i,O=C(NC1Cc2ccccc2C1)[C@@H]1[C@@H](CO)[C@@H]2Cn3c(cccc3=O)[C@@H]2N1C(=O)c1ccccn1
1.8,1.9,-5.1,i,C[C@@H]1CN([C@@H](C)CO)C(=O)c2ccccc2-c2ccccc2CO[C@H]1CN(C)C(=O)C1CC1
0.1,-3.3,-0.8,i,COc1ccc(C(=O)Nc2ccc3c(c2)C(=O)N(C)C[C@H](OC)[C@H](C)CN[C@@H](C)CO3)cc1
-1.8,4.9,-5.5,i,COc1ccc2c3c([nH]c2c1)[C@@H](CO)N(C(=O)C1CC1)CC31CN(C(=O)c2ccncc2)C1
-7.5,5.8,5.6,i,CCCNC(=O)N1CC2(CN(S(=O)(=O)c3ccc(OC)cc3)C2)c2c(n(C)c3cc(OC)ccc23)[C@H]1CO
0.3,-4.8,2.6,i,C[C@@H]1CCCCO[C@@H](CN(C)Cc2ccc(C(F)(F)F)cc2)[C@H](C)CN([C@@H](C)CO)C(=O)c2cc(NS(=O)(=O)c3cn(C)cn3)ccc2O1
4.8,-1.2,-4.6,i,C[C@@H]1CN([C@@H](C)CO)C(=O)c2cc(NC(=O)NC3CCCCC3)ccc2O[C@@H](C)CCCCO[C@H]1CN(C)C(=O)CCCN(C)C
4.5,5.3,0.8,i,C[C@@H]1CN([C@@H](C)CO)S(=O)(=O)c2ccc(C#CC(C)(C)O)cc2O[C@@H]1CN(C)C(=O)C1CCCCC1
0.2,4.3,1.4,i,COc1ccc(S(=O)(=O)N(C)C[C@@H]2Oc3c(NS(=O)(=O)c4cccs4)cccc3C(=O)N([C@H](C)CO)C[C@@H]2C)cc1
-2.4,-3.6,1.8,i,Cc1ccc(S(=O)(=O)N(C)C[C@@H]2Oc3ccc(NC(=O)CCCCCC(=O)Nc4ccccc4N)cc3C(=O)N([C@@H](C)CO)C[C@@H]2C)cc1
0.3,17.9,-2.0,i,O=C(C[C@H]1CC[C@H]2[C@@H](COC[C@@H](O)CN2Cc2nccs2)O1)NCc1ccccc1Cl
1.4,8.8,-1.9,i,N#Cc1ccc(-c2ccc([C@@H]3[C@@H](CO)N4C(=O)CNC[C@H]34)cc2)cc1
-0.9,2.4,-1.1,i,Cc1noc(C)c1NC(=O)N(C)C[C@@H]1OCc2ccccc2-c2c(n(C)c3ccccc23)C(=O)N([C@@H](C)CO)C[C@@H]1C
0.8,-6.5,2.3,i,C[C@H](CO)N1C[C@H](C)[C@@H](CN(C)S(=O)(=O)c2cn(C)cn2)Oc2ccc(NC(=O)Nc3cccc4ccccc34)cc2CC1=O
2.5,12.7,5.4,i,COc1ccccc1S(=O)(=O)N1CC[C@@H]2[C@@H](CO)N(C)c3ccc(-c4ccc(F)cc4)cc3[C@@H]21
2.8,6.3,-1.0,i,CC(C)[C@@H]1COCc2cn(nn2)CC[C@H](C)C(=O)N1
-0.2,4.3,-2.5,i,COc1cccc(-c2cn(CC[C@@H]3CC[C@@H](NC(=O)CN(C)C)[C@H](CO)O3)nn2)c1
-2.2,3.1,-3.8,i,Cc1ccc(S(=O)(=O)N[C@H]2CC[C@H](CCNC(=O)c3ccccc3F)O[C@@H]2CO)cc1
-0.7,1.7,-2.3,i,CCCNC(=O)N[C@H]1CC[C@@H](CC(=O)NC2CCC2)O[C@H]1CO
0.6,0.7,1.7,i,CO[C@H]1CN(C)C(=O)c2cc(NS(=O)(=O)CC(F)(F)F)ccc2OC[C@@H](C)N(Cc2cccnc2)C[C@@H]1C
1.0,4.0,-1.4,i,COCC(=O)Nc1ccc2c(c1)C(=O)N(C)C[C@H](OC)[C@H](C)CN(C(=O)c1ccccc1F)[C@@H](C)CO2
3.8,4.6,-0.9,i,C[C@@H]1CN([C@H](C)CO)C(=O)c2cc(-c3cncnc3)cnc2O[C@@H]1CN(C)C(=O)c1ccccc1F
-1.8,5.9,0.9,i,C[C@H]1CN([C@@H](C)CO)C(=O)c2cccc(NC(=O)CCCCCC(=O)Nc3ccccc3N)c2O[C@@H]1CN(C)C(=O)Nc1ccc(C(F)(F)F)cc1
2.4,4.3,0.6,i,CNC[C@H]1Oc2c(NS(=O)(=O)c3cccs3)cccc2C(=O)N([C@H](C)CO)C[C@H]1C

# The list is partial. The share of hits here may be higher or lower than overall.
